Compound activity as filed in PubChem.
CDC25B-CDK2 inh: primary biochemical HTRF screen for blockers of M-phase inducer phosphatase 2 binding to CDK2/cyclin A. 94,000 compounds, 0.72% hits. z-score (concentration not given with the values). P30305+P24941. HTRF CDC25B-CDK2/CyclinA binding, anti-His/anti-Flag; stronger effect = higher value;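 note: score is relative to mean and SD of negative controls; strong numbers were not always called active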
HIV TAR-Tat: TAR RNA-Tat peptide displacers, HIV-1, primary screen, biochemical, FRET, FAM/TAMRA-labeled Tat; HIV-1 TAR RNA, Tat peptide displacement FRET; stronger effect = higher value; z-score (no concentration beside the values); 100,000 compounds, 0.6% hits; AID 1259389, 2018;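 note: score is relative to mean and SD of negative controls; some compounds called inactive have numbers as strong as hits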
* hit, by the source's call; · = not tested or not shown.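 Rule for the calls: active = z-score from 3 up in half or more of its runs; inactive = the rest.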

SMILES	CDC25B-CDK2 inh	HIV TAR-Tat
CCn1c(NCc2ccccc2C)nc2ccccc21	-1.4	1.4
O=C(COc1ccc(Cl)cc1)N(c1ccccc1)C1C=CS(=O)(=O)C1 (stereo not drawn)	-1.4	1.4
O=C(CCc1nnc2ccc(N3CCOCC3)nn12)NCC1CCCO1 (stereo not drawn)	·	0.54
COc1ccccc1OCCn1cc(C(=O)C(C)(C)C)c2ccccc21	-1.5	-1.6
O=C1CSC(c2cn(-c3ccccc3)nc2-c2cc3ccccc3oc2=O)N1Cc1cccnc1 (stereo not drawn)	-1.9	·
Cc1cc(C)c2c3c(sc2n1)C(c1ccc(F)c(F)c1)C(C#N)=C(N)O3 (stereo not drawn)	-0.73	-0.51
Cc1ccc(-c2nc(C(N)=O)c3[nH]c(=O)n(-c4ccc(C)c(C)c4)c3n2)cc1C	·	1.2
O=C(NCC1COc2ccccc2O1)C1CCN(S(=O)(=O)c2cccc3nonc23)CC1 (stereo not drawn)	-1.3	0.45
CC1=C(C(=O)OCc2ccccc2)C(c2cccc(O)c2)C2=C(CC(c3cccs3)CC2=O)N1 (stereo not drawn)	-0.42	0.73
COc1ccc2c(c1)c1nc3cc4ccccc4cc3nc1n2C(C)=O	-0.73	-0.92
Cc1cccc(CSc2nc3ccncc3n2Cc2ccc(C(=O)O)cc2)c1	-2.1	-0.57
COC(=O)c1c(OC)cc(C)nc1C	-0.4	-0.13
C#CCN1C(=O)C(O)(CC(=O)c2cc(C)ccc2C)c2ccccc21 (stereo not drawn)	3.7	0.66
CCCNc1nc(Nc2cccc(Cl)c2)c2cnn(C)c2n1	·	1.5
C=CCc1c(C)nc2nc(=S)[nH]n2c1C	-2	·
Cc1ccc(-c2nc3cc(Cl)ccc3o2)cc1N	-1.6	0.25
NC(=O)C1CCN(C(=O)c2cc3ccccn3n2)CC1	-0.97	·
CN1CCN(S(=O)(=O)c2ccc3c(c2)NC(=O)CS3)CC1	·	-1.3
CC(C)OCCCN1C(=O)c2[nH]nc(-c3ccccc3O)c2C1c1cccc(Br)c1 (stereo not drawn)	1.6	1.1
O=C(NCc1ccc(F)cc1)c1cc2nc(-c3cccs3)cc(C(F)(F)F)n2n1	-1.2	0.8
O=C(CC1(O)C(=O)Nc2ccc(Cl)cc21)c1cc2ccccc2o1 (stereo not drawn)	·	0.23
O=C(CCSc1ccccc1)Nc1nc(-c2nc3ccccc3s2)cs1	·	0.09
Cc1ccc2nc(C3=C(O)CN(c4cccc(O)c4)C3=N)[nH]c2c1	-1.8	0.97
Cc1ccc(C)n1-c1cc(C(=O)O)ccc1Cl	1.5	·
COC(=O)C1=C(C)NC2=C(C(=O)CC(C)(C)C2)C1c1ccncc1 (stereo not drawn)	-0.22	0.35
CN1CCN(c2ncnc3c2sc2nc(N4CCOCC4)c4c(c23)CC(C)(C)OC4)CC1	-0.07	1.8
COc1ccc(Nc2oc(/C=C/c3cccs3)nc2C#N)cc1	-2	0.38
Nc1nonc1C(=O)NCCNCC#Cc1ccccc1	-0.23	-0.46
Cn1cc(-c2cc3n(n2)CCC(=O)N3CC(=O)N2CCN(C3CCCCC3)CC2)c2ccccc21	·	1.3
CN(C)c1ccc(-c2nc3cnccn3c2NC2CCCC2)cc1	-2.3	-3.4
Brc1ccc(Cc2cn3cc(-c4ccccc4)nc3s2)cc1	-0.91	2.4
Cc1ccc(OCC(O)CN2C(C)CCCC2C)cc1C (stereo not drawn)	-1.7	·
Cc1cc(C)c(-c2n[nH]c3c2C(c2cccc(O)c2)N(CCCO)C3=O)c(O)c1 (stereo not drawn)	-2	-0.22
Clc1ccc(OCc2nc3c4cnn(-c5cccc(Br)c5)c4ncn3n2)cc1	-1.7	2.3
O=C(CSc1nc2ccccc2o1)N1CCC(n2cccc2)CC1	-0.89	·
COC(=O)c1c(-c2c(Cl)cccc2Cl)noc1NC(=O)NN(C)C	-0.07	·
CC1=NS(=O)(=O)c2cc(C(=O)NC3CC3)ccc2N1CC(C)C	·	1.6
CNC(=O)c1ccccc1Sc1cccc2cccc(C(=O)NC)c12	-0.45	·
O=C(NCC1CCN(CCc2ccccc2)C1)Nc1ccc(Br)cc1 (stereo not drawn)	-1	0.89
Cc1cc(C)n2nc(N(C)S(=O)(=O)c3ccccc3)nc2n1	-1.7	1.5
CCc1ccc(-c2cc(C)no2)cc1S(=O)(=O)Nc1ccc(F)cc1C	·	-0.41
Cc1cc(-c2ccc(=O)[nH]n2)cc(S(=O)(=O)NC(C)c2ccccc2)c1C (stereo not drawn)	·	2.1
COc1cccc2c(=O)c(NC(=O)NCc3ccco3)c[nH]c12	-2	-0.6
CCS(=O)(=O)NC(C)C(c1cccs1)N1CCN(C)CC1 (stereo not drawn)	-0.69	·
COc1ccccc1CCC(=O)O	0.37	·
CC12CC3CC(Br)(C1)CC(C(=O)O)(C3)C2 (stereo not drawn)	-0.81	·
CCCN1C(=O)C2(c3ccccc31)c1c(oc3ccccc3c1=O)C(=O)N2CC1CCCO1 (stereo not drawn)	-2.7	1.2
C=CCn1c(N)c(C(=O)NC2CCCCC2)sc1=S	-3	-1.6
CCCCn1c(C2CC(=O)N(c3cccc(Cl)c3)C2)nc2ccccc21 (stereo not drawn)	-1.1	1.1
CCCC(=O)Oc1ccc2c(=O)c(Oc3ccc(OC)cc3)coc2c1	-0.4	1.8

Next section:
SMILES	CDC25B-CDK2 inh	HIV TAR-Tat
COC(=O)C(C)Sc1ccc2nnc(-c3ccc(C)cc3)n2n1 (stereo not drawn)	-1.5	·
Cc1c(C(=O)N2CCC(C)CC2)sc2ncnc(N3CCN(c4ccccn4)CC3)c12	-2	·
CCOC(=O)CSC1=C(C#N)C(c2ccco2)C(C(=O)Nc2ccc(Cl)cc2)=C(C)N1 (stereo not drawn)	0.2	1
OC(CNc1ccc(Br)cc1)Cn1c2ccccc2c2ccccc21 (stereo not drawn)	-0.84	·
Oc1c(C(c2ccncc2)N2CCOCC2)cc(Cl)c2cccnc12 (stereo not drawn)	2	-1
CCN1CCN(c2cc(NCCO)c3c4c(onc24)-c2ccccc2C3=O)CC1	1.1	15*
CN(C)c1ccc(C2C3=C(CCCC3=O)Nc3ncnn32)cc1 (stereo not drawn)	-0.5	-0.74
Cc1nnc2sc(-c3ccncc3)nn12	0.72	0.77
O=C(NCC1COc2ccccc2O1)C(=O)N1CCCCC1 (stereo not drawn)	0.99	-1.9
C=C(C)Cn1c(=O)c2c(nc3n2CCN3c2ccc(Cl)cc2)n(C)c1=O	·	2.2
Cc1ccc(S(=O)(=O)Nc2ccc(-c3ccc4ccccc4n3)cc2)cc1	·	-0.21
O=C(Nc1sc2c(c1C(=O)N1CCOCC1)CCCCC2)c1ccco1	-0.01	·
CCSc1nnc(-c2ccccc2)c(-c2ccccc2)n1	·	1
Cc1nn(C)c(Sc2ncccn2)c1[N+](=O)[O-]	-0.63	·
CCCCN(C)S(=O)(=O)c1ccc2[nH]c(=O)ccc2c1	·	2.2
O=C(O)c1ccc(N2C(=O)C3C4C=CC(CO)(O4)C3C2=O)cc1 (stereo not drawn)	0.81	1.9
c1cnc2c(c1)nnn2C1CC1	-1.3	·
O=C1c2ccc(S(=O)(=O)c3ccc4c(c3)C(=O)N(CCO)C4=O)cc2C(=O)N1CCO	-0.48	·
Cc1ccc(NS(=O)(=O)c2ccc3c(c2)C(C)(C)C(=O)N3)c(C)c1	·	-0.86
NC(=O)c1cnccn1	-1.1	1.1
CCOC(=O)c1c(C)n(C)c2ccc(OCCN(CC)CC)cc12	-1.7	1.4
Nc1[nH]c(=O)ncc1F	·	-1.1
NC(=O)CSC1=Nc2ccccc2C2=NC(c3ccccc3)C(=O)N12 (stereo not drawn)	-0.62	·
Cc1nn(-c2ccccc2)c2c1C(c1ccc(O)c(O)c1)C1=C(CC(c3ccccc3)CC1=O)N2 (stereo not drawn)	-0.19	-0.29
Cc1nc(NC(=O)c2nn(-c3cccc(Cl)c3)ccc2=O)sc1C(=O)OCC(C)C	0.15	0.45
CC1(C)CC(=O)C2=C(C1)OC(N)=C(C#N)C2c1cccc(OCc2ccccc2)c1 (stereo not drawn)	-0.87	·
Cc1oc2ccc(OCc3c(F)cccc3Cl)cc2c1C(=O)O	-2.3	3
CCCn1c(CN2CCOCC2)nc2c1c(=O)n(C)c(=O)n2C	-1	-0.66
CC(C)S(=O)(=O)c1cnc(N2CCOCC2)nc1N	-1.1	·
COc1ccccc1OCC(O)CN1C(=O)NC(C)(C)C1=O (stereo not drawn)	-1.9	0.5
Cn1c(=O)oc2cc(S(=O)(=O)N3CCCC(C(=O)NCc4cccs4)C3)ccc21 (stereo not drawn)	0.21	1.3
CC1CCN(C2=NS(=O)(=O)c3ccccc32)CC1	-1.1	1.3
CCOc1ccc2nc(-n3nc(C)c4c3NC(=O)CC4c3ccc([N+](=O)[O-])s3)sc2c1 (stereo not drawn)	·	1.4
CCOC(=O)c1[nH]c(C)c(C(=O)Nc2nnc(SCC)s2)c1C	-0.93	1.4
Cc1ccc(-c2csc3c2ncn2c(=O)n(CC(=O)Nc4ccc(Br)cc4)nc32)cc1	·	0.86
COC(=O)c1scc(N)c1C(=O)OC	-0.56	·
COc1ccccc1C1Nc2c(C(=O)O)cccc2C2C3CCC(C3)C12 (stereo not drawn)	-2.1	·
CCOC(=O)/C=C1\NC(=O)CS1	-1.7	·
O=C1CC(c2ccccc2)CC2=C1C=Nc1ccccc1N2 (stereo not drawn)	-1.1	0
COc1cc(S(=O)(=O)n2ccnc2C(C)C)ccc1Br	0.17	-0.38
O=C(CSc1nc2ccsc2c(=O)n1Cc1ccc(F)cc1)N1CCCC1	-0.26	·
CC1(C)CC(NC(=O)COc2cccc3ccccc23)CC(C)(C)N1	-3	·
Cc1c(Cl)cccc1N1C(=O)C2C3c4ccccc4C(C)(c4ccccc43)C2C1=O (stereo not drawn)	-1.9	·
CC1CCN(c2ccc(-c3cccs3)nn2)CC1	·	1.6
CCOc1ccc(C2Nc3ccccc3NC3=C2C(=O)CC(c2ccccc2)C3)cc1 (stereo not drawn)	-1.7	2.3
CC1(C)CC(=O)c2c(oc3ccc(NS(=O)(=O)c4ccc(C(=O)O)cc4)cc23)C1	-1	0.59
COc1ccc2c(c1)CCc1c(C(=O)NC(C)C)noc1-2	1.2	-0.53
O=C(O)c1cccc(N2C(=O)C3CC=CCC3C2=O)c1 (stereo not drawn)	·	0.5
Cc1ccc2nc(Nc3ccc(Br)cc3F)c3nnnn3c2c1	-3.5	-0.81
CC(C)c1ccc(NC(=O)CS(=O)(=O)c2ccc3c(c2)S(=O)(=O)N=CN3)cc1	·	1.4

Next results follow.
SMILES	CDC25B-CDK2 inh	HIV TAR-Tat
O=C(c1cnc2sc(N3CCCC3)nn2c1=O)N1CCCC1	·	-0.86
COC(=O)C1=C(C)NC2=C(C(=O)CC(c3ccccc3Cl)C2)C1c1coc2ccc(C)cc2c1=O (stereo not drawn)	0	0.4
O=S(=O)(c1ccc2c(c1)CCN2)N1CCN(c2ccccn2)CC1	·	0.55
CCCCCc1nc2c(=O)[nH]c3ccccc3c2o1	-0.77	·
O=C(NC1CCCC1)C(c1ccc(Cl)cc1)N(C(=O)c1cnccn1)c1cccs1 (stereo not drawn)	-1.1	-0.34
O=C(NC1CCS(=O)(=O)C1)c1ccc(Cn2c(=O)c3cccn3c3cccnc32)cc1 (stereo not drawn)	·	-0.16
COc1ccccc1N(CCCN1C(=O)c2cccc3cccc(c23)C1=O)C(C)=O	-1.2	·
COc1cc(/C=C2\N=C(c3ccc([N+](=O)[O-])cc3Cl)OC2=O)ccc1OCc1ccccc1	-1.2	·
CCOc1ccc(C2c3c(oc4ccccc4c3=O)C(=O)N2c2ccc(C)cn2)cc1OCC (stereo not drawn)	0.02	0.01
CCCOc1ccc(C(=O)Nc2ccc3oc(-c4c(F)c(F)c(F)c(F)c4F)nc3c2)cc1	-3.5	·

The order is random; overall some 0.97% were active at least once.
